MLL AF4-AF9 inh – inhibitors of AF4 peptide binding to AF9, primary screen, biochemical, AlphaScreen, biotin-AF4 peptide, FLAG-AF9, single point; inhibition, % at 10 µM; 350,000 compounds, 0.47% hits; Protein AF-9 (Homo sapiens), P42568;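 active = every replicate reaching a set inhibition limit, whatever the replicate mean, cut at about 25% in these data; inconclusive = mean inhibition reaches that limit but some replicates miss it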;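 note: 0% = plate neutral control median and 100% = total signal loss; the record names both 10 and 1 µM as test concentration; the first replicate is given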
Target sequence (P42568 whole entry, looked up): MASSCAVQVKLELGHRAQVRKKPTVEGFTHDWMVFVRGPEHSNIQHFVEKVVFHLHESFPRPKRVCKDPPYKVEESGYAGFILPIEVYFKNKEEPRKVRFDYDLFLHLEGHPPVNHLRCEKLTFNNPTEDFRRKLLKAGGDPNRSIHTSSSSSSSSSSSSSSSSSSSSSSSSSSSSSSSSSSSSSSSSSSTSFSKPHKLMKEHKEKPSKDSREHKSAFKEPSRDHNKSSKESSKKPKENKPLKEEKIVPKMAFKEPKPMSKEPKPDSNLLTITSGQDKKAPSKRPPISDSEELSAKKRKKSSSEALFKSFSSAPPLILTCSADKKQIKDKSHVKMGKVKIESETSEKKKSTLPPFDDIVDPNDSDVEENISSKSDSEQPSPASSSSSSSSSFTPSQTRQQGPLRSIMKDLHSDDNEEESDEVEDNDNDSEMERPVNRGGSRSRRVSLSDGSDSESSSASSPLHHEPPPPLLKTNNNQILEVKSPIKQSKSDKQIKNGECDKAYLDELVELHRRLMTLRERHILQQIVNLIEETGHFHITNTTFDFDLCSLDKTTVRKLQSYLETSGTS
E coli growth – E. coli growth inhibition, primary screen, OD600; Escherichia coli growth, 23 h; stronger effect = lower value; OD600 absorbance (no concentration beside the values); 330,000 compounds, 0.21% hits; AID 1053175, 2014;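 active = OD600 absorbance below the run mean of sample wells minus 3.6 SD, in any replicate, cut at about 0.56 in these data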;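 note: stock transfer was 300 nL into about 60 µL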
rRNA inh HTS – reduced GFP signal of wild-type E. coli, primary screen, bacterial rRNA inhibitor project, GFP/RFP fluorescence, OD600, single point; E. coli WT GFP vs humanized-ribosome RFP mutants, 24 h; stronger effect = lower value; DMSO median 0, no signal -100; 350,000 compounds, 1.6% hits; GFP signal change (wild-type ribosome), % (test concentration not listed); AID 720706, 2013;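 active = significant combined selectivity score with lowered wild-type GFP, culture density cut under 30%, mutant RFP and density less affected; inactive = any of these conditions unmet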; note: one replicate is shown; some compounds called inactive have numbers as strong as hits
HNF4A DNA FP – change in binding of human HNF4A to DNA, primary screen, biochemical, fluorescence polarization, FITC-DNA. Hepatocyte nuclear factor 4-alpha (Homo sapiens), P41235. 1 h. activity change, % at 10 µM. 360,000 compounds, 0.3% hits; in the data active = activity change above about 30%, passing the limit was not always enough;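 note: controls were the assay level and a saturating level of protein; the project sought stronger binding though the title names inhibitors; some compounds called inactive have numbers as strong as hits; positive values seem to mean higher polarization but the record does not say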
Target sequence (P41235 whole entry, looked up): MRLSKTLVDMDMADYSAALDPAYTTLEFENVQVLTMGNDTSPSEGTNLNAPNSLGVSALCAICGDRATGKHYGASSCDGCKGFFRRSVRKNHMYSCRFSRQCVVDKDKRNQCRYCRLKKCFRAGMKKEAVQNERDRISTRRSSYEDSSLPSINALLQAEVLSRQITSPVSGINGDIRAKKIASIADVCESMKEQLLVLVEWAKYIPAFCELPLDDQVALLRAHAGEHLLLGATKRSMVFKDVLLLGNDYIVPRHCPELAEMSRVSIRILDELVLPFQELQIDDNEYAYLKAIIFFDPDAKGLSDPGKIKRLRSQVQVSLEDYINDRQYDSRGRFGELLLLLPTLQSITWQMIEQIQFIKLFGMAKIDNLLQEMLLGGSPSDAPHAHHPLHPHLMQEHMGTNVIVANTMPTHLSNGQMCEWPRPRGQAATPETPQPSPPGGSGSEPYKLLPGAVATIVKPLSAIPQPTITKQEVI
ALR H2O2 inh – inhibitors of human ALR sulfhydryl oxidase, primary screen, biochemical, H2O2 detection, HRP-luminol luminescence, single point. FAD-linked sulfhydryl oxidase ALR (Homo sapiens), P55789. inhibition, % (concentration not given with the values). 290,000 compounds, 3.8% hits. purified ALR, DTT oxidation;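 active = mean and each replicate at 75% or more; inconclusive = only one of the two met; inactive = neither met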;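 note: stock transfer was 7.5 nL into about 7.5 µL; 0% = neutral wells and 100% = wells with inactivated enzyme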
FGF22 binding – binders of human FGF22 protein, primary screen, FGF22 synaptogenesis inhibitor project, biophysical, thermal shift, single point; calls only at 9.99 µM; recombinant FGF22 thermal shift, SYPRO orange fluorescence; percent of sucrose octasulfate shift, DMSO zero; Fibroblast growth factor 22 (Homo sapiens), Q9HCT0; 340,000 compounds, 1.5% hits;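 active = melting point raised past a set limit in the mean and every replicate; inconclusive = no clear call; three in four hits are not shown here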
Vif A3G – inhibitors of Vif binding to APOBEC3G peptide, primary screen, biochemical, TR-FRET, GST-Vif 1-94, biotin-A3G peptide, dose response retest (AID 1117319); 260,000 compounds, 0.57% hits; TR-FRET GST-Vif / biotin-A3G peptide binding; higher % means a stronger effect; test concentration not given here; strong numbers were not always called active; Virion infectivity factor (Human immunodeficiency virus type 1 group M subtype B (isolate …; one-dose inhibition, %; IC50 in µM for titrated hits;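 active = above the screen mean plus three standard deviations and confirmed in dose response; inconclusive = results disagree or hit not tested in dose response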;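 note: Vif residues 1-94 fused to GST binding biotinylated APOBEC3G peptide 110-148; 0% = full assay without inhibitor and 100% = GST in place of GST-Vif; retest series ran down from 100 µM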
rRNA inh HTS OD600 – also measured in rRNA inh HTS; calls as there; OD600 change, %; measured here: OD600 growth;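 optical density of the mix in the first replicate; 0 = DMSO median and -100 = no signal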
rRNA inh HTS RFP – recorded beside rRNA inh HTS, whose call it bears; RFP signal change, %; measured here: RFP humanized mutant strains;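 first replicate; 0 = DMSO median and -100 = no signal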
* = called active by the depositor; i = inactive; ? = inconclusive; / = not tested or not shown.

SMILES | MLL AF4-AF9 inh | E coli growth | rRNA inh HTS | rRNA inh HTS OD600 | rRNA inh HTS RFP | HNF4A DNA FP | ALR H2O2 inh | FGF22 binding | Vif A3G
Cc1ccccc1C(=O)N1CCN(c2ncnc3c2cnn3-c2ccccc2)CC1 | / | 0.7 | / | / | / | -1.9 | / | / | -3%
COc1cccc(CC(=O)Nc2ccc3c(c2)c(=O)n(C)n3-c2ccc(C(C)(C)C)cc2)c1 | -2.5 | / | 6 | 18 | 1.8 | -2.2 | / | i | /
O=C(N/N=C/c1cc(Br)cs1)C(O)c1ccccc1 (stereo not drawn) | 4.0 | / | 3 | 1 | -0.7 | 3.5 | -9 | i | 6%
CCC1C(=O)c2ccccc2N(C)C1=O (stereo not drawn) | -2.3 | 0.72 | 8 | 2 | -2.4 | 2.4 | -1 | / | -5%
CCOc1ccccc1NC(=O)NCCc1c[nH]c2ccccc12 | 7.8 | 0.64 | -15 | -28 | -15 | -1.1 | 1 | i | -6%
O=C(O)C(c1ccccc1)C1(O)CCCC1 (stereo not drawn) | / | 0.8 | / | / | / | -1.5 | -3 | / | -4%
Cc1ccc(N2C(=O)CC(Sc3ccccc3C(=O)O)C2=O)cc1 (stereo not drawn) | / | 0.72 | / | / | / | 1.7 | 5 | / | 16%
CCOc1nc(-c2ccccc2)ncc1Oc1ccccc1 | -7.8 | 0.67 | 5 | 7 | -0.4 | -1.1 | -4 | i | /
COC(=O)c1c(C)nc2ccccc2c1C(=O)O | / | 0.73 | / | / | / | 1.7 | / | / | 0%
CCCc1cc(=O)oc2c(C)c(OC(C)C(=O)NCC(O)c3ccccc3)ccc12 (stereo not drawn) | -0.5 | 0.71 | -6 | -14 | -0.4 | -1.3 | -3 | i | -1%
C[C@H](NC(=O)[C@@H]1Cc2ccccc2CN1C(=O)OC(C)(C)C)C(=O)NCC1CCCO1 (stereo partly drawn) | 0.1 | 0.67 | 9 | 9 | 0.4 | 11 | -2 | i | 2%
Cn1cc([C@]2(O)C(=O)Nc3cccc(Cl)c32)c2ccccc21 | / | / | 6 | 11 | 4.8 | -2.0 | / | i | /
Cc1c(C(=O)N(C)C2CCCCC2)sc2ncnc(N3CCN(c4ccccc4F)CC3)c12 | / | 0.71 | / | / | / | 2.1 | -53 | / | /
O=C(O)[C@H](Cc1ccccc1)NC(=O)C(c1ccccc1)(c1ccccc1)c1ccccc1 | -20 | / | -23* | -18* | 0.3* | 2.5 | 59 | i | ?
O=C(C1COc2ccccc2O1)N1CCN(S(=O)(=O)c2cc(F)ccc2F)CC1 (stereo not drawn) | 0.5 | 0.67 | -5 | -9 | -0.5 | 1.5 | 5 | i | 6%
O=C(Oc1ccc2ccc(=O)oc2c1)C1CCCCC1 | / | 0.7 | / | / | / | 4.6 | 2 | / | -7%
Cn1c(SCC(=O)n2c3c(c4ccccc42)CCCC3)nnc1-c1ccccc1 | / | 0.73 | / | / | / | -4.8 | / | / | -3%
COc1ccncc1-c1ccccc1C1=CC(=O)CC(C)(C)C1=O | 12 | / | -9 | -9 | 13 | -3.8 | / | i | 2%
CCCNC(=O)C[C@@H]1CC[C@@H]2[C@H](COC[C@H](O)CN2C(=O)Nc2ccc(Cl)c(Cl)c2)O1 | -13 | / | -57 | -70 | -3.4 | / | / | i | /
CCN=C1SC(CC(=O)NC(C)c2ccccc2)C(=O)N1CC (stereo not drawn) | 3.0 | 0.71 | -3 | 7 | -1.5 | -2.1 | / | i | /
CN1CCN(c2ccc(NC(=O)Cc3ccccc3)cc2)CC1 | / | 0.65 | / | / | / | 4.0 | -6 | / | -1%
COC(=O)c1cccc(NC(=O)CN2CCN(Cc3ccccc3)CC2)c1 | / | 0.65 | / | / | / | -1.4 | -4 | / | -1%
CCOC(=O)c1cn2nc(Oc3ccccc3)ccc2n1 | -1.9 | 0.69 | 8 | 3 | 3.2 | -1.6 | 0 | i | 4%
COc1ccc(CC(NC(C)=O)C(=O)NC2CCN(C(=O)c3ccc(OC)c(OC)c3)CC2)cc1OC (stereo not drawn) | 0.7 | 0.71 | -10 | -13 | -0.2 | -2.8 | -10 | i | -2%
CCOc1ccc(CN2CCN(Cc3ccc4cc(F)ccc4n3)CC2CCO)cc1 (stereo not drawn) | 3.9 | 0.7 | 3 | -1 | 3.6 | 0.9 | -3 | i | 8%

A different layout for some results above:
The line under a structure holds: MLL AF4-AF9 inh	E coli growth	rRNA inh HTS	rRNA inh HTS OD600	rRNA inh HTS RFP	HNF4A DNA FP	ALR H2O2 inh	FGF22 binding	Vif A3G
CCCc1cc(=O)oc2c(C)c(OC(C)C(=O)NCC(O)c3ccccc3)ccc12 (stereo not drawn)
  -0.5	0.71	-6	-14	-0.4	-1.3	-3	i	-1%
COc1ccncc1-c1ccccc1C1=CC(=O)CC(C)(C)C1=O
  12	/	-9	-9	13	-3.8	/	i	2%
COc1ccc(CC(NC(C)=O)C(=O)NC2CCN(C(=O)c3ccc(OC)c(OC)c3)CC2)cc1OC (stereo not drawn)
  0.7	0.71	-10	-13	-0.2	-2.8	-10	i	-2%
CCOc1nc(-c2ccccc2)ncc1Oc1ccccc1
  -7.8	0.67	5	7	-0.4	-1.1	-4	i	/
COC(=O)c1cccc(NC(=O)CN2CCN(Cc3ccccc3)CC2)c1
  /	0.65	/	/	/	-1.4	-4	/	-1%

(cont.)
SMILES | MLL AF4-AF9 inh | E coli growth | rRNA inh HTS | rRNA inh HTS OD600 | rRNA inh HTS RFP | HNF4A DNA FP | ALR H2O2 inh | FGF22 binding | Vif A3G
Cc1ccc(F)c(S(=O)(=O)NC(=O)C2(C)CCN2C(=O)Cc2ccccc2)c1 (stereo not drawn) | -5.3 | / | 5 | 5 | -12 | 0.6 | / | i | /
COC(=O)c1ccc2nc(-c3ccc(C)cc3)c(Cc3ccccc3)n2c1 | -2.5 | / | 6 | -22 | 12 | / | / | i | /
COC(=O)Cn1c(=O)c2c(nc3n2CCCN3CCc2ccc(OC)c(OC)c2)n(C)c1=O | 1.7 | 0.67 | -5 | -9 | -1.3 | -1.1 | -6 | i | 6%
O=C(C[C@H]1CC[C@@H]2[C@H](COC[C@H](O)CN2Cc2ccccc2)O1)N1CCOCC1 | -1.8 | / | -1 | -4 | -4.7 | / | / | i | /
Cc1ccc2nc(C)c(C(=O)N/N=C/c3ccc(C(=O)O)cc3)cc2c1 | 1.1 | / | 6 | 4 | -5.4 | 4.3 | 8 | i | 9%
Cc1cc(=O)[nH]c(SCC(=O)Nc2ccnc3ccccc23)n1 | -1.3 | 0.72 | 9 | 5 | -4.2 | -0.3 | -12 | i | /
C[C@@H]1CN([C@@H](C)CO)S(=O)(=O)c2ccc(-c3cccc(F)c3)cc2O[C@H]1CN(C)C | 1.7 | / | -1 | -8 | -5.1 | / | / | i | /
O=C(N/N=C1/CC(c2ccccc2)Oc2ccccc21)C1CC1 (stereo not drawn) | / | / | / | / | / | 0.0 | -2 | / | 2%
C[C@@H]1CCCCO[C@@H](CN(C)C(=O)c2ccccc2)[C@H](C)CN([C@H](C)CO)C(=O)c2cc(NS(=O)(=O)c3ccc(Cl)cc3)ccc2O1 | 3.5 | / | -4 | -15 | 1.1 | / | / | i | /
O=S(=O)(NN1CCOCC1)c1ccc(Br)s1 | -9.5 | 0.71 | 10 | 12 | 0.6 | -2.2 | 29 | i | /
CC1CCC(C(C)C)C(OP(=O)(c2ccc(N(C)C)cc2)C(O)c2cccnc2)C1 (stereo not drawn) | / | 0.7 | / | / | / | / | -14 | / | -3%
CCN(CC)S(=O)(=O)c1cccc2cccnc12 | / | 0.68 | / | / | / | -3.1 | -4 | / | -8%
CN1CCN(C2Cc3ccc(Cl)cc3Sc3ccc(F)cc32)CC1 (stereo not drawn) | 21 | 0.53 | -45 | -60 | -13 | 9.3 | 5 | i | /
Cc1ccccc1N/C(SCc1ccc(Cl)cc1)=C(/C#N)C(N)=O | / | 0.66 | / | / | / | 3.8 | -2 | / | ?
CC(C)CCN(C(=O)Nc1ccc(Cl)cc1)C1CCN(C(C)C)CC1 | -3.6 | 0.66 | -35* | -22* | 0.7* | 4.2 | -9 | / | /
O=C(Cn1[nH]c(=O)c2ccccc2c1=O)OCC(=O)c1ccccc1Cl | 2.6 | 0.61 | 9 | 20 | -2.9 | 1.8 | -7 | i | 14%
COc1cccc(CNC(=O)C[C@@H]2CC[C@@H]3[C@H](COc4ccc(NS(=O)(=O)c5ccccc5F)cc4C(=O)N3C)O2)c1 | 0.5 | / | -2 | -8 | -0.5 | / | / | i | /
CCC(=NNC(=O)c1ccc2c(c1)nc(C)n2CC)c1cc(F)ccc1O | 1.5 | 0.71 | / | / | / | -0.5 | 4 | i | -3%
CC(C)(C)S(=O)N1Cc2cc(CO)ccc2[C@@H]1CCO (stereo partly drawn) | -6.4 | 0.68 | 8 | 5 | -1.9 | 4.3 | / | i | -3%
O=C(CCCOc1ccc(Cl)cc1)N1CCCCCC1 | / | 0.7 | / | / | / | 1.1 | / | / | -1%
C[C@@H]1CCCCO[C@H](CN(C)C(=O)CCC(F)(F)F)[C@@H](C)CN([C@@H](C)CO)C(=O)c2cc(NC(=O)c3ccccc3)ccc2O1 | 7.5 | / | 2 | -8 | -1.8 | / | / | i | /
Cc1cccc(-c2nnc(SCCOc3ccc4c(C)cc(=O)oc4c3)o2)c1 | / | 0.7 | / | / | / | -1.0 | 4 | / | 9%
CCOC(=O)c1c[nH]n(-c2ccc(C)cc2)c1=O | 0.2 | 0.68 | 6 | 6 | -9.9 | -1.9 | / | i | ?
CCOc1ccc(NC(=O)CCC(=O)NNC(=O)c2cccc([N+](=O)[O-])c2)cc1 | 0.7 | 0.64 | 1 | 16 | -0.9 | 2.8 | -1 | i | -5%
CC(C)NC(=O)Nc1ccc2c(c1)C(=O)N([C@@H](C)CO)C[C@H](C)[C@H](CN(C)S(=O)(=O)c1cccs1)OCCCC[C@@H](C)O2 | -1.0 | / | 1 | 5 | -4.5 | / | / | i | /

(continued)
SMILES | MLL AF4-AF9 inh | E coli growth | rRNA inh HTS | rRNA inh HTS OD600 | rRNA inh HTS RFP | HNF4A DNA FP | ALR H2O2 inh | FGF22 binding | Vif A3G
COc1cccc(S(=O)(=O)Nc2ccc3c(c2)[C@H]2C[C@H](CC(=O)N(C)C)O[C@H](CO)[C@H]2O3)c1 | -5.6 | / | 2 | 12 | -3.8 | / | / | i | /
COc1ccccc1-c1cnc2c(c1)C(=O)N([C@@H](C)CO)C[C@@H](C)[C@@H](CN(C)C(=O)CN(C)C)O2 | -0.5 | / | 5 | 3 | -0.4 | / | / | i | /
O=C(NC(=S)Nc1cc([N+](=O)[O-])ccc1O)c1cccnc1 | -3.7 | 0.66 | 7 | 18 | 5.9 | 5.6 | 1 | i | 21%
Cc1cc(NC(=O)CSc2nnc(-c3cccnc3)n2C)no1 | / | 0.72 | / | / | / | 5.1 | -4 | / | -2%
CCOC(=O)N/N=C/c1ccc(N(CC)CC)cc1O | / | / | / | / | / | 1.4 | 99* | / | 5%
CCC(C)(C)n1nnnc1CN1CCSCC1 | -2.3 | 0.69 | 7 | 3 | 1.5 | -1.8 | -1 | i | 9%
O=C(N[C@@H]1CC[C@H](CCNS(=O)(=O)Cc2ccccc2)O[C@H]1CO)c1ccc2c(c1)OCO2 | -2.2 | / | -1 | 1 | -0.3 | / | / | i | /

From PubChem BioAssay

An excerpt, so the mix of outcomes need not match the whole.
